# Screens deposited in PubChem BioAssay by several laboratories.
# T cell HTS: T cell immune modulation candidate; 2C CD8+ T cell-vesicle binding, flow cytometry; hits give low values; calls only at 7 µM; 330,000 compounds, 0.068% hits;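 active means response, share of CD8 T cells binding vesicles, and their 90th percentile fluorescence all below set limits, cut at about 80% in these data, passing the limit was not always enough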
#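 Assay system – 2C mouse CD8+ T cells · Also added – QL9-loaded Drosophila micro-vesicles · Timing – Cell–vesicle co-incubation 1.5 h at 37 °C, staining 20 min on ice · Signal – flow cytometry of vesicle-bound cells · Measure – percent CD8+ FL2 mean versus row control · Controls – Peptide-free naked vesicles (low) and QL9 vesicles with 0.7% DMSO vehicle (high)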
# Myeloid diff MLP: compounds promoting myeloid differentiation | ER-HoxA9 myeloid progenitors, lysozyme-GFP differentiation, flow cytometry | calls only at 10 µM | 360,000 compounds, 1% hits | AID 624256;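 active means normalized GFP-positive differentiation at or above the plate's own cutoff, the solvent-only control mean plus 3 SD; inconclusive means no clear call, values can overlap the other calls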;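 further: cells exposed to compound for four days before flow analysis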
# RSV antiviral HEp-2: RSV antiviral activity via CPE protection, HEp-2 cells, primary 10 µM value included (AID 2391) | HEp-2 cells, RSV-induced CPE inhibition; higher % means a stronger effect | one-dose CPE inhibition, % at 10 µM; IC50 in µM for titrated hits | 310,000 compounds, 0.13% hits; in the data active means a potency from the dose series; inconclusive means CPE inhibition mostly from about 23% at the one dose, without a potency; inactive means the rest, 99 in 100 with CPE inhibition below about 21%; further: strong numbers were not always called active
# Large T inhibition: SV40 large T antigen inhibitors, biochemical (AID 1903); 310,000 compounds, 0.39% hits; SV40 large T antigen ATPase/helicase inhibition assay; higher % means a stronger effect; inhibition, % at 20 µM; hits with a dose series show IC50 in µM; in the data active means a potency from the dose series; inconclusive means inhibition mostly from about 32% at the one dose, without a potency; inactive means the rest, 99 in 100 with inhibition below about 32%; further: strong numbers were not always called active
# PhoP inhibition: PhoP-dependent GFP reporter repression – Salmonella Typhimurium, primary screen (AID 1863); S. Typhimurium PhoP-regulated promoter GFP reporter, 4 h; higher % means a stronger effect; inhibition, % at 50 µM, or IC50 in µM where a hit was titrated; 300,000 compounds, 0.16% hits;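 active means inhibition over 29.93%, a cutoff 3 SD above the screen mean, later confirmed by dose response; inconclusive means inhibition over 29.93% but no dose response follow-up; inactive means inhibition at most 29.93% or unconfirmed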;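 further: 0% = low Mg2+ inducing control and 100% = high Mg2+ repressing control; strong numbers were not always called active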
# West Nile antiviral: inhibition of WNV-induced cytopathic effect – cell-based, CPE readout (AID 1621). 290,000 compounds, 0.02% hits. one-dose CPE inhibition, % at 10 µM; IC50 in µM for titrated hits. West Nile virus-infected cells, CPE inhibition; higher % means a stronger effect; in the data active means a potency from the dose series; inconclusive means CPE inhibition mostly from about 3.7% at the one dose, without a potency; inactive means the rest, 99 in 100 with CPE inhibition below about 2.2%; further: strong numbers were not always called active
# MgcRacGAP inhibition: MgcRacGAP GTPase-activating activity inhibitors, confirmation, biochemical, ADP Hunter fluorescence; MgcRacGAP-stimulated Rac1 GTP hydrolysis, ADP Hunter fluorescence; higher % means a stronger effect; GST-tagged Rac1 F28L mutant substrate; one-dose inhibition, % at 30 µM; IC50 in µM for titrated hits; 340,000 compounds, 0.6% hits; AID 624330;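 active means first-screen hits whose inhibition reached a set limit at any dose in the follow-up dose series; inconclusive means inhibition above the set first-screen limit but never retested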;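 further: fluorescence reports GDP produced by GAP-driven GTP hydrolysis; strong numbers were not always called active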
# WT yeast gro inh: growth inhibition of WT yeast, mitochondrial fusion screen. mitochondrial fusion phenotypic screen, WT strain. inhibition, % at 10 µM. 190,000 compounds, 2.1% hits. AID 1362; in the data active means inhibition above about 58%; tested in S. cerevisiae
# WT yeast gro inh mutant strain: also measured in WT yeast gro inh; calls as there; inhibition, %; mitochondrial fusion phenotypic screen, mutant strain inhibition
# T cell HTS vesicle-bound %: second read-out of T cell HTS, no call of its own (marks repeat the call); double positive events, %; measured here: CD8+ vesicle-bound cell fraction;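 binding gate set so that unloaded-vesicle control wells show 10% double positive cells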
# Myeloid diff MLP GFP+ MAC1+ %: second read-out of Myeloid diff MLP, no call of its own (marks repeat the call); GFP+ MAC1+ double positive, %; measured here: differentiation confirmed by MAC1 staining
# * marks the source's active call; other numbers are inactive results; i = inactive; u = inconclusive; x = no result given. An excerpt, so the mix of outcomes need not match the whole.
SMILES,T cell HTS,T cell HTS vesicle-bound %,Myeloid diff MLP,Myeloid diff MLP GFP+ MAC1+ %,RSV antiviral HEp-2,Large T inhibition,PhoP inhibition,West Nile antiviral,MgcRacGAP inhibition,WT yeast gro inh,WT yeast gro inh mutant strain
CC(=O)N(C)/C=C1\Sc2ccccc2C1=O,i,1,i,1.1,2.1%,9%,-1%,x,7%,-5,2
CC1=C(/C=C/C(=O)O)C(C)(C)CCC1,i,27,i,0.7,1.4%,-9%,-18%,0.1%,4%,-15,-13
O=C(CCC(=O)OCc1ccc(Cl)cc1)Nc1cccc([N+](=O)[O-])c1,i,29,i,0.9,0.3%,9%,8%,0.3%,6%,16,5
N/C(Cc1cccs1)=N\OC(=O)COc1ccc(Br)cc1Cl,i,53,i,0.7,1.4%,8%,-4%,0.0%,3%,14,1
COC(=O)C(NNc1ccccc1)(NC(=O)c1ccccc1F)C(F)(F)F (stereo not drawn),i,21,i,1.0,13%,5%,-9%,0.3%,3%,14,2
Cc1cc(C)nc(N2CCC(C(=O)NCCc3ccc(F)cc3)CC2)n1,i,40,i,0.7,-0.3%,16%,0%,x,10%,69*,17*
CCCn1nc2cc(C(=O)NCc3ccccc3)ccc2c1OCC,i,24,i,2.2,-0.1%,11%,-1%,-0.5%,15%,-12,-18
Cc1csc(=S)n1-c1ccccc1,i,57,i,1.1,-0.1%,-1%,-6%,-0.3%,16%,-1,66
Cc1nc2ccccc2nc1SCC(=O)N1CCC(C)CC1,i,26,i,0.7,2.5%,3%,6%,-0.6%,7%,6,9
Cc1ccc2cc(C(=O)O)c(C)nc2c1,i,39,i,1.1,1.0%,2%,29%,-0.1%,2%,15,-6

# Rewritten with two lines to a compound: two of the compounds above
# Every second line gives: T cell HTS | T cell HTS vesicle-bound % | Myeloid diff MLP | Myeloid diff MLP GFP+ MAC1+ % | RSV antiviral HEp-2 | Large T inhibition | PhoP inhibition | West Nile antiviral | MgcRacGAP inhibition | WT yeast gro inh | WT yeast gro inh mutant strain
> Cc1cc(C)nc(N2CCC(C(=O)NCCc3ccc(F)cc3)CC2)n1
  i | 40 | i | 0.7 | -0.3% | 16% | 0% | x | 10% | 69* | 17*
> CCCn1nc2cc(C(=O)NCc3ccccc3)ccc2c1OCC
  i | 24 | i | 2.2 | -0.1% | 11% | -1% | -0.5% | 15% | -12 | -18

# (continued)
SMILES,T cell HTS,T cell HTS vesicle-bound %,Myeloid diff MLP,Myeloid diff MLP GFP+ MAC1+ %,RSV antiviral HEp-2,Large T inhibition,PhoP inhibition,West Nile antiviral,MgcRacGAP inhibition,WT yeast gro inh,WT yeast gro inh mutant strain
Cc1ccc(-c2cc(C(=O)N3N=C(C(F)F)CC3(O)C(F)F)c3ccccc3n2)cc1C (stereo not drawn),i,10,i,1.0,-3.2%,6%,0%,-0.4%,-3%,92*,86*
CCOc1c2ccc(C(=O)NCc3ccc(C)cc3)cc2nn1CCOC,i,50,i,6.3,2.8%,15%,-4%,0.0%,3%,21,17
Cc1ccc(S(=O)(=O)Nc2ccc(=O)n(Cc3ccc(Cl)c(Cl)c3)c2)cc1,i,35,i,0.8,2.7%,-1%,-7%,-1.2%,7%,20,19
CCCc1nc(SCC(=O)Nc2nc3c(s2)CCCC3)c2ccccc2n1,i,30,i,2.3,1.3%,12%,-7%,-1.0%,1%,-4,4
COC(=O)[C@H](CCSC)NC(=O)NCc1ccccc1F,x,x,i,7.9,0.5%,0%,2%,0.2%,-6%,-30,-32
S=c1nc(-c2ccccc2)[nH]n1-c1ccccc1,i,38,i,0.6,0.7%,22%,0%,x,u,20,18
COC(=O)c1nnn(-c2nonc2N)c1CSc1nc2ccccc2o1,i,15,i,2.3,-0.9%,16%,3%,0.1%,3%,-11,2
COc1ccc(/C=C2\N=C(SC)SC2=O)cc1OC,i,26,i,0.7,1.5%,18%,-11%,0.4%,6%,3,-2
S=C(NCCC(c1ccccc1)c1ccccc1)Nc1ccc(Cl)cc1,i,27,i,6.4,-0.8%,0%,-5%,-1.1%,12%,-11,5
CCOc1ccc(NC(=O)CSc2nnc(CCNC(=O)c3ccc(OC)cc3)n2CC)cc1,i,30,i,0.8,1.2%,12%,-8%,x,5%,6,13
Cc1cc(C)c(S(=O)(=O)Nc2c(C)[nH]c(=O)[nH]c2=O)c(C)c1,i,56,i,1.2,-0.4%,7%,-3%,-0.8%,-3%,-6,-8
COC(=O)CSc1nc(NC#N)nc(NC(C)C)n1,i,19,i,0.9,1.9%,0%,0%,0.3%,3%,-25,-4
Cn1c(SCC(=O)N2CCCC2)nnc1-c1ccc(S(=O)(=O)N2CCCC2)cc1,i,40,i,6.5,0.6%,13%,26%,0.1%,2%,6,-14
CCOc1ccc(OCC)c(NC(=O)CN(C)S(=O)(=O)c2cnc[nH]2)c1,i,24,i,1.3,4.3%,2%,4%,-0.1%,13%,-28,-1
CCN(CC)c1cc(C)c2cc(NC(=O)c3ccc(Br)o3)ccc2n1,i,21,i,0.2,u,0%,4%,-0.2%,7%,15,12
Cc1ccc(C(=O)N2c3ccccc3N(Cc3ccccc3)C(=O)C2(C)C)cc1,i,6,i,3.6,-1.2%,5%,20%,0.5%,2%,85*,56*
CCN(CCCNC(=O)C1CCN(S(=O)(=O)CC)CC1)c1cccc(C)c1,i,7,i,2.2,-1.9%,16%,-7%,-0.7%,17%,-19,-16
COc1ccc(Nc2ncc(C(=O)N3CCN(Cc4ccccc4)CC3)c3ccccc23)cc1,i,46,i,1.1,12%,5%,20%,-0.1%,6%,40,23
CCNC(=O)C1CC(=O)N(c2ccc(OCC)cc2)C1 (stereo not drawn),i,33,i,0.9,0.6%,-2%,-3%,0.2%,11%,1,8
CCN(CC)c1ccc(/C=N/N2CCN(Cc3ccc(C)cc3)CC2)c(O)c1,x,x,i,3.6,1.8%,7%,9%,0.4%,15%,23,5

# Overlap with the part before: 2 compounds, then new ones.
SMILES,T cell HTS,T cell HTS vesicle-bound %,Myeloid diff MLP,Myeloid diff MLP GFP+ MAC1+ %,RSV antiviral HEp-2,Large T inhibition,PhoP inhibition,West Nile antiviral,MgcRacGAP inhibition,WT yeast gro inh,WT yeast gro inh mutant strain
CCNC(=O)C1CC(=O)N(c2ccc(OCC)cc2)C1 (stereo not drawn),i,33,i,0.9,0.6%,-2%,-3%,0.2%,11%,1,8
CCN(CC)c1ccc(/C=N/N2CCN(Cc3ccc(C)cc3)CC2)c(O)c1,x,x,i,3.6,1.8%,7%,9%,0.4%,15%,23,5
Cc1ccc(SCc2nnc(NC(=O)c3ccccc3)s2)cc1,i,23,i,2.6,0.3%,-7%,5%,0.2%,3%,5,4
O=[N+]([O-])c1ccc(S(=O)(=O)Nc2ccc(-c3csc(-c4ccccc4)n3)cc2)cc1,i,46,x,x,-5.1%,8%,4%,0.1%,x,95*,69*
COc1cccc(OC)c1C(=O)Nc1ccc2c3c(cccc13)CC2,i,40,i,1.2,5.0%,9%,3%,0.1%,11%,-7,-6
CCCCNC(=O)NS(=O)(=O)c1cnccc1Sc1ccc(Cl)cc1,i,47,i,0.8,1.1%,2%,-4%,0.3%,9%,-7,-6
CCOC(=O)/C=C1/SCC(=O)N1CC(=O)Nc1ccc2c(c1)CCC2,x,x,i,1.8,x,x,x,x,-7%,x,x
Cc1cc(NC(=O)CSCCO)no1,i,10,i,0.7,0.7%,12%,1%,0.3%,6%,1,-6
O=C(Nc1cccn(Cc2ccc(F)cc2)c1=O)NC1CCCCC1,i,14,i,1.2,3.7%,10%,9%,-0.8%,8%,10,-5
N#Cc1c(N2CCCC(O)C2)nc(N)c2c(N)nc3c(c12)CC(=O)N3C12CC3CC(CC(C3)C1)C2 (stereo not drawn),i,31,u,x,0.8%,-10%,6%,-2.0%,-4%,6,12
CC(C)OC(=O)NCCOC(=O)Nc1cccc(Cl)c1,i,13,i,0.6,16%,0%,-1%,-1.9%,4%,12,11
CC1(C)OC(=O)N(c2ccccn2)C1(C)O (stereo not drawn),i,37,i,0.8,1.2%,9%,-7%,0.6%,12%,19,23

# Limited to Myeloid diff MLP (four entries from above):
molecule | Myeloid diff MLP
O=C(Nc1cccn(Cc2ccc(F)cc2)c1=O)NC1CCCCC1 | i
N#Cc1c(N2CCCC(O)C2)nc(N)c2c(N)nc3c(c12)CC(=O)N3C12CC3CC(CC(C3)C1)C2 (stereo not drawn) | u
CC(C)OC(=O)NCCOC(=O)Nc1cccc(Cl)c1 | i
CC1(C)OC(=O)N(c2ccccn2)C1(C)O (stereo not drawn) | i

# Continuation.
SMILES,T cell HTS,T cell HTS vesicle-bound %,Myeloid diff MLP,Myeloid diff MLP GFP+ MAC1+ %,RSV antiviral HEp-2,Large T inhibition,PhoP inhibition,West Nile antiviral,MgcRacGAP inhibition,WT yeast gro inh,WT yeast gro inh mutant strain
COc1ccc(Oc2ccccc2C=O)cc1,i,54,i,1.0,5.8%,-4%,13%,0.1%,8%,0,10
NC(=O)[C@H](Cc1cc2ccccc2s1)NC(=O)[C@@H]1CC2(CC(c3cccc(NC(=O)[C@@H]4CCC(=O)N4)c3)=NO2)CN1C(=O)/C=C/c1c(F)cccc1Cl (stereo partly drawn),i,20,i,1.4,2.8%,18%,-14%,-0.5%,3%,-2,14
CCOc1ccc(-n2c(N)c(C(=O)NCC3CCCO3)sc2=S)cc1 (stereo not drawn),i,43,i,0.2,1.7%,7%,-8%,-0.5%,7%,14,14
CC1CCN(CCCNC(=O)c2n[nH]c(=O)c3ccccc23)CC1,i,35,i,0.0,-0.1%,9%,4%,-0.1%,1%,-10,-18
CCCCCNCc1cccc(Br)c1,i,45,i,6.6,-0.7%,3%,16%,-1.1%,6%,15,6
O=C(CCc1ccccc1)NNC(=S)NC(=O)c1ccccc1,i,57,i,5.5,-2.9%,22%,-5%,-0.6%,3%,42,59
C=CCNC(=S)NNC(=O)c1ccc2c(c1)OCO2,i,40,i,0.7,3.4%,1%,-1%,-0.1%,5%,28,-2
COc1ccc(S(=O)(=O)NC(CC(=O)NC2CCCC2)c2ccco2)cc1 (stereo not drawn),i,21,i,0.8,0.3%,2%,-2%,-0.2%,6%,0,-13
CCOC(=O)N1CCN(Cc2nc(-c3ccc(Cl)cc3)no2)CC1,i,10,i,1.5,6.0%,10%,3%,-0.5%,0%,15,-4
